Source: PubChem
PKD1 kinase inh: inhibitors of human PKD1 kinase, biochemical, fluorescence polarization; Serine/threonine-protein kinase D1 (Homo sapiens), Q15139; AID 797, 2007; PKD1 kinase fluorescence polarization assay; inhibition, %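 (about 10 µM by stock and volumes)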; 200,000 tested, 0.056% active;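 active = inhibition of 50% or more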;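 also: controls were vehicle for no effect and a reference inhibitor for full effect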
GALR2 ag: GALR2 receptor agonists, primary screen, cell-based; Galanin receptor type 2 (Homo sapiens), O43603; GALR2-expressing cells, agonist activation read-out; activation, %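 (tested at 5 µM)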; 140,000 tested, 0.48% active;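 active = above mean plus 3 SD of all compounds, about 5% in these data, not always enough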;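 also: 0% = vehicle buffer wells and 100% = reference agonist at full effect; tested in CHO reporter cells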
Target sequence (O43603 whole entry, looked up): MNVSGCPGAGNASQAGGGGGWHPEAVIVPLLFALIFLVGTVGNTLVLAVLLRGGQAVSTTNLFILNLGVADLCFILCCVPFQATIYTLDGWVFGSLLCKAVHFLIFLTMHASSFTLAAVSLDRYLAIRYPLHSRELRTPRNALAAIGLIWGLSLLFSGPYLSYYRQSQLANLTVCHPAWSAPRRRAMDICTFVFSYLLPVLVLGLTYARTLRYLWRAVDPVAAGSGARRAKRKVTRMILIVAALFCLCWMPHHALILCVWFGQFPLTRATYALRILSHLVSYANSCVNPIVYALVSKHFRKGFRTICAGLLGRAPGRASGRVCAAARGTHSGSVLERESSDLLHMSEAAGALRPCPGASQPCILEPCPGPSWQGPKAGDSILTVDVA
INS promoter inh: inhibitors of insulin promoter-driven GFP, primary screen, imaging, TRM-6 cells (human fetal islet line), eGFP reporter, cell count | reporter expression induced with tamoxifen | inhibition, % at 2 µM | 130,000 tested, 0.9% active;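 active = inhibition above the mean plus 3 SD, with well images judged a real hit on visual review, cut at about 60% in these data, passing the limit was not always enough; inconclusive = inhibition over the cutoff but images rejected on review; inactive = inhibition not above the cutoff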
HSV augment: enhancers of HSV replication in host cells, fold increase, host cell viability; HSV replication augmentation in cells; maximum fold increase; 220,000 tested, 0.005% active;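 active = peak rise of 1.5-fold or more in the series; inconclusive = self-fluorescent or not available for retest; tested in PC3 cells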;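 also: first round at 10 µM; read as green reporter fluorescence; hits show the peak of a series up to 25 µM; 1 = signal of infected wells without compound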
RGS16-Gao HTS: modulators of RGS16 binding to Galphao, primary screen, biochemical, human proteins, multiplexed bead flow cytometry; bead-based flow cytometry RGS16-Galphao binding, fluorescence; actives lie on both sides; binding response (% of control), % at 10 µM; 220,000 tested, 0.38% active; AID 1441, 2008;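 active = below 25% or above 175%, edge rows of some plates excepted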;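 also: Galphao activated by GDP with aluminum fluoride before binding; 100% = wells without compound and 0% = beads without RGS; some results beyond the cut were filed as inactive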
Target sequence (O15492 whole entry, looked up): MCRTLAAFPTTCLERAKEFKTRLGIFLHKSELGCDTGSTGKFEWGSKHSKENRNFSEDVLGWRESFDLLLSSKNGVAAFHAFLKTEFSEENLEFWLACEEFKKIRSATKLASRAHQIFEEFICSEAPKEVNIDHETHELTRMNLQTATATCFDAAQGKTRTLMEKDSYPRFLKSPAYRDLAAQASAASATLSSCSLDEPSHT
Target sequence (P09471 whole entry, looked up): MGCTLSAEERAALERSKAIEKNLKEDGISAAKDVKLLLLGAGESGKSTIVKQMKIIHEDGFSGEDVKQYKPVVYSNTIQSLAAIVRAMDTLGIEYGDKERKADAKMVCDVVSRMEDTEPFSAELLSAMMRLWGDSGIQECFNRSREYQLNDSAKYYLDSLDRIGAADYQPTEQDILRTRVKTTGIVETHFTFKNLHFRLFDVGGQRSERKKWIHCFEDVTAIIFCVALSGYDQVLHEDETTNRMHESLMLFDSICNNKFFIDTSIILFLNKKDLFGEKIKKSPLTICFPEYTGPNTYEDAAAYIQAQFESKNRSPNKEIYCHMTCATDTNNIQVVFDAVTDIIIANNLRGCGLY
INS promoter inh cell count: also measured in INS promoter inh; calls as there; normalized cell count, %; measured here: cell count, toxicity; reference of the scale not given here;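 cells exposed to compound for 48 h; stained nuclei by imaging scaled within each plate; lower means fewer cells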
HSV augment primary fold: recorded beside HSV augment, whose call it bears; fold increase; compound at 10 µM; measured here: primary screen fold increase 10 uM; tested in PC3 cells;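 GFP signal in the first replicate; 1 = infected wells without compound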
* marks the source's active call; other numbers are inactive results; i = inactive; u = inconclusive; x = not tested or not shown.

Every second line gives: GALR2 ag, INS promoter inh cell count, RGS16-Gao HTS, PKD1 kinase inh, INS promoter inh, HSV augment, HSV augment primary fold
> COc1ccc2c(c1)c(CC(=O)O)c(C)n2C(=O)c1ccc(Cl)cc1
 : -0.3, 91, 104, -2, 14, i, 0.87
> COc1cc2c3c(c1OC)C1(C=CC(=O)C=C1)CC3N(C(=O)c1ccccc1)CC2 (stereo not given)
 : -1.3, 117, 103, 1, -6, i, 1.1
> Cc1cccc(NC(=O)CCc2ccc(S(=O)(=O)NC3CCCCC3)cc2)c1
 : -0.8, 118, 111, -5, -27, i, 0.83
> CN(Cc1ccc(OC(F)F)cc1)C(=O)c1ccc2nccnc2c1
 : -0.3, 125, 137, -11, 6, i, 0.92
> CC(=O)NC(Cc1cccc(C)c1)C(=O)NC1CCN(C(=O)c2ccc([N+](=O)[O-])cc2)CC1 (stereo not given)
 : 0.5, 118, 130, -7, -13, i, 1.1
> CCN1CCN(c2nc(Nc3ccccc3F)nc(N)c2[N+](=O)[O-])CC1
 : x, x, 103, x, x, i, 1
> Cc1cc(Cl)cc(Br)c1OCCNCC(C)O (stereo not given)
 : -1.6, 110, 107, 6, 0, i, 0.95
> COc1nc(OC/C(N)=N/O)nc(N2CCOCC2)n1
 : -0.9, 121, 131, -9, -12, i, 0.92
> COc1cc(/C=C/C(=O)O)ccc1OS(=O)(=O)c1ccc(C)cc1
 : x, x, 105, 1, x, i, 1
> COc1ccc(OC)c(N=C2C(=O)Nc3ccccc32)c1
 : -0.6, x, 87, -1, x, i, 1.1
> COC(=O)c1ccc(OC(=O)c2cccs2)cc1
 : x, 91, 101, 2, -13, i, 0.92
> NC(=O)COC(=O)c1cccc(NS(=O)(=O)/C=C/c2ccccc2)c1
 : -0.8, x, 20, -3, x, i, 1.3
> CCOc1ccc(NC(=O)C2CCN(S(=O)(=O)c3cccnc3)CC2)cc1
 : -1.4, 93, 107, -4, -45, i, 0.92
> O=C(CCCc1ccccc1)N1CCc2ccccc21
 : -2.1, 162, 84, 4, 39, i, 0.75
> NC(=O)C[C@@H]1NC(=O)[C@H](CCC(=O)O)NC(=O)c2cc([N+](=O)[O-])cc(I)c2OCC[C@@H](C(N)=O)NC1=O
 : -2.0, 114, 95, 0, 9, x, x
> CCOC(=O)C(=CNNc1ccsc1C(=O)OC)C(=O)OCC
 : x, x, 98, x, x, i, 1.2
> CC(C)Cc1ccc(S(=O)(=O)Nc2ccccn2)cc1
 : x, x, 102, x, x, i, 1
> CN(C)S(=O)(=O)N(CC(=O)N1CCN(c2ccccc2)CC1)c1ccccc1
 : x, x, 101, 0, x, i, 1.1
> CCCc1nc(SCC(=O)NCc2ccco2)c2c(=O)n(C)c(=O)n(C)c2n1
 : 0.0, x, 104, -3, x, i, 0.72
> COc1ccc(CCNc2c(N)n(Cc3ccccc3)c(=O)[nH]c2=O)cc1OC
 : 0.1, 117, 101, -6, 21, i, 1
> CCCCCCC(C)n1cc(C(C)=O)c(=O)n(C)c1=O (stereo not given)
 : -1.7, 129, 110, -10, 29, i, 1
> Cc1cc(C(=O)NNC(=S)NCc2ccccc2)cs1
 : -0.9, 163, 101, 2, 54, i, 0.97
> CC(C)(C)C(=O)NC(=S)NNC(=O)c1ccc(Cl)cc1Cl
 : x, x, 107, -1, x, i, 0.97
> CCC1C/C(=C/c2cccs2)C(=O)/C(=C/c2cccs2)C1 (stereo not given)
 : -2.0, 101, 85, -5, -43, i, 0.92
> COc1ccc(C(=O)Nn2c(C3CCC3)nc3ccccc3c2=O)c(OC)c1
 : -3.0, 114, 99, -2, 14, i, 1
> CCC(=O)Nc1cccc(-c2nnc(SCC(=O)c3ccccc3)n2C)c1
 : -2.8, 116, 97, 2, 10, i, 0.94
> O=C(COc1ccc(Cl)cc1Cl)NC1CCSC1=O (stereo not given)
 : -1.7, 130, 98, -5, -15, i, 0.93
> CN1CCN(C(=O)c2cccc(S(=O)(=O)N3CCCCC3)c2)CC1
 : -0.4, x, 97, 0, x, i, 0.93
> CCOC(=O)C1CCCN(Cc2cccc(Cl)c2)C1 (stereo not given)
 : -0.9, 110, 111, 1, -2, i, 0.81
> CC(C)(C)NC(=O)NC(=O)COC(=O)c1c(F)cccc1Cl
 : x, x, 98, 0, x, i, 0.9
> CS(=O)(=O)N(CC(=O)N1CCN(c2ccccc2F)CC1)c1cccc(C(F)(F)F)c1
 : -1.0, 166, 124, 0, -47, i, 0.89
> CCOc1cc(S(=O)(=O)NCc2ccco2)c(OCC)cc1-n1cnnn1
 : -3.5, 84, 107, 11, -29, i, 1.2
> O=C(CN1CCN(c2nc(-c3ccccc3)cs2)CC1)Nc1ccc2c(c1)OCO2
 : -1.8, 69, 106, 3, -267, i, 0.92
> O=Cc1cccn1-c1cccnc1
 : x, x, 103, -11, x, i, 0.6
> O=C(CC(c1ccccc1)c1cc(Br)ccc1O)NCc1ccco1 (stereo not given)
 : -0.8, 83, 98, -4, -43, i, 0.9
> Cc1cccc(NC(=S)N=Nc2c(O)n(CN3CCOCC3)c3ccccc23)c1C
 : -2.4, 95*, 98, 0, 78*, i, 0.94
> COc1ccccc1C(=O)NCc1ccc2c(c1)OCO2
 : -1.0, 102, 96, 1, -15, i, 0.87
> O=C1OCC2=C1C(c1ccc(F)cc1)Sc1ccccc1N2 (stereo not given)
 : -1.7, 64, 100, -2, 61, i, 0.86
> CCCCOC(=O)c1nnc(-c2ccccc2)o1
 : x, x, 100, x, x, i, 1
> COc1ccc(-n2c(=S)[nH]c3c(sc(=S)n3-c3ccccc3)c2=O)c(OC)c1
 : x, x, 89, 4, x, i, 1.1
> CCOC(=O)C1=C(C)N(CCCC(=O)O)C(=O)NC1c1ccccc1OS(=O)(=O)c1ccc(C)cc1 (stereo not given)
 : -2.4, 105, 69, -2, -35, i, 0.87
> Cc1ccccc1NC(=O)c1ccccc1NC(=O)CCC(=O)O
 : -0.9, x, 108, 1, x, i, 0.91
> O=C(C1CCCN1S(=O)(=O)c1cccc2cccnc12)N1CCc2ccccc21 (stereo not given)
 : -1.1, x, 99, -13, x, i, 0.98
> O=C1CCCC(O)=C1C(C#Cc1ccccc1)C1=C(O)CCCC1=O
 : -2.1, 138, 93, -4, -29, i, 0.9
> O=C(COC(=O)c1ccccc1Nc1ccccc1)c1ccccc1
 : -1.6, 91, 93, 3, 42, i, 1.1

Complete entries from above. Order of screens: GALR2 ag | INS promoter inh cell count | RGS16-Gao HTS | PKD1 kinase inh | INS promoter inh | HSV augment | HSV augment primary fold
O=C1CCCC(O)=C1C(C#Cc1ccccc1)C1=C(O)CCCC1=O is listed with -2.1 | 138 | 93 | -4 | -29 | i | 0.9
CCOc1cc(S(=O)(=O)NCc2ccco2)c(OCC)cc1-n1cnnn1 is listed with -3.5 | 84 | 107 | 11 | -29 | i | 1.2
O=C1OCC2=C1C(c1ccc(F)cc1)Sc1ccccc1N2 (stereo not given) is listed with -1.7 | 64 | 100 | -2 | 61 | i | 0.86
O=Cc1cccn1-c1cccnc1 is listed with x | x | 103 | -11 | x | i | 0.6

Continued.
Every second line gives: GALR2 ag, INS promoter inh cell count, RGS16-Gao HTS, PKD1 kinase inh, INS promoter inh, HSV augment, HSV augment primary fold
> CCOCCCNS(=O)(=O)c1ccc(OC)c(Cl)c1Cl
 : -1.1, 116, 88, -11, -35, i, 1
> NC(=O)Cn1nnc(-c2ccc(NC(=O)c3ccc(F)cc3)cc2)n1
 : x, x, 99, -6, x, i, 1
> C=CCn1ccc(=NC=C(C#N)C#N)c2ccccc21
 : x, x, 106, x, x, i, 0.98
> COC(=O)[C@H](CC(C)C)NC(=O)CCc1nnc(COc2ccccc2)o1
 : x, x, 102, -3, x, i, 0.91
> Cc1c(Cc2ccccc2)sc(NC(=O)c2ccco2)c1C(N)=O
 : 1.6, 87, 126, -9, 31, i, 0.98
> C/C(=N\NC(=O)c1ccc(-c2ccccc2)cc1)c1cccc(N)c1
 : x, x, 129, -2, x, i, 1
> O=C(Cc1ccc(F)cc1)Nc1ccc(S(=O)(=O)N2CCCCC2)cc1
 : x, x, 107, -1, x, i, 0.99
> CC(C)C(=O)N1CCN(CCN=CC2=C(O)CC(c3ccco3)CC2=O)CC1 (stereo not given)
 : -1.4, 98, 110, -2, 36, i, 1
> CN(Cc1nc(-c2cnccn2)no1)Cc1cccc2ccccc12
 : x, x, 102, -2, x, i, 0.94
> Cc1ccc(NC(=O)COC(=O)c2csc3c2CCC(C)C3)cc1S(=O)(=O)N1CCCCC1 (stereo not given)
 : -2.5, 101, 70, 13, -23, i, 0.94
> CC(=O)Nc1ccc(S(=O)(=O)N(c2cccnc2)S(=O)(=O)c2ccc(NC(C)=O)cc2)cc1
 : 0.2, 118, 85, 5, 6, i, 0.94
> CCN1C(=O)c2cccc3c(S(=O)(=O)NCc4ccccn4)ccc1c23
 : -2.2, 100, 102, 2, 20, i, 0.99
> Cc1ccc2nsnc2c1NC(=S)NC(=O)c1ccco1
 : -0.5, 103, 101, 10, 10, i, 0.94
> COC(=O)C(Cc1ccccc1)P(=O)(c1ccccc1)c1ccccc1 (stereo not given)
 : -1.8, 83, 103, -10, -67, i, 0.87
> CC(C1CC2CCC1C2)n1c(-c2ccco2)n[nH]c1=S (stereo not given)
 : x, x, 120, -2, x, i, 1.1
> O=C(O)c1cccc(N2CCCC2=O)c1
 : -3.9, 67, 110, -5, -56, i, 1.1
> Cc1cc(=O)[nH]c(SCC(=O)Nc2ccc(S(=O)(=O)N3CCOCC3)cc2)n1
 : -0.9, 104, 104, -6, 6, i, 0.95
> COc1ccc(N2C(=O)CC(Sc3nccc(C)n3)C2=O)cc1 (stereo not given)
 : -3.3, 114, 109, 8, -10, x, x
> Cn1cc([C@@H]2C[C@H]3CN(Cc4cccc(Cl)c4)C(=O)[C@]34CCCN24)c(-c2ccccc2)n1
 : x, x, 100, -10, x, i, 0.99
> CCN(CC)C(=O)CN1C(=O)/C(=C/c2ccccc2)SC1=S
 : x, x, 91, x, x, i, 0.89
> COC(=O)c1cc(NS(=O)(=O)c2ccc(N3CCOCC3)c(NC(C)=O)c2)cc(C(=O)OC)c1
 : 0.2, x, 101, 2, x, i, 0.9
> CN(C)NC1=CC(=[N+]2CCCC2)CC(C)(C)C1
 : x, 95, 97, 0, -78, i, 0.74
> COc1ccc(-c2nnn(CC(=O)NCCc3ccc(OC)c(OC)c3)n2)cc1
 : x, x, 105, -2, x, i, 0.88
> CC1CN(C(=O)CN2C(=O)c3ccccc3C2=O)CC(C)O1 (stereo not given)
 : -1.3, x, 100, 5, x, i, 0.93
> COc1cccc(CNc2nc3nc(C)c(Cl)c(C)n3n2)c1
 : 0.8, 48, 91, -10, 13, i, 0.82
> Nc1c(S(=O)(=O)c2ccccc2)c2nc3ccccc3nc2n1/N=C/c1ccco1
 : -2.3, 121, 106, -4, 33, u, x
> COc1ccc2c(c1)c(=O)c(C(=O)c1ccccc1)cn2Cc1ccccc1
 : -0.4, 52, 75, 0, -50, x, x
> C=CCNC(=S)NNc1nc(Nc2ccccc2)nc(N2CCCCC2)n1
 : x, x, 106, 7, x, i, 0.82
> COc1ccccc1NC(=O)Cn1c(CCC(=O)O)ccc1-c1ccc(C)cc1
 : x, x, 102, 0, x, i, 0.97
> Cc1ccc(/C=C(\C#N)C(=O)NCc2ccco2)o1
 : x, x, 101, -2, x, i, 0.97
> Cc1ccc(-n2c(=O)c(C#N)cc3c(=O)n4ccccc4nc32)cc1
 : 8.7*, x, 114, -8, x, i, 0.92
> Oc1ccc(-c2onc(C(F)(F)F)c2-c2cscn2)c(O)c1
 : -0.6, 44, 96, -6, 63, x, x
> O=C1c2ccccc2C(=O)N1c1ncccn1
 : -2.1, x, 100, -6, x, i, 0.98
